# Screens from PubChem BioAssay.
# Arbovirus anti – arbovirus infection inhibition; arbovirus infection cell-based antiviral screen; inhibition, % at 10 µM; hit rate 0.37% among 200,000; AID 1251;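 active means inhibition from about 30%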;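 further: bluetongue infection of BSR cells; cell survival read as ATP light after 72 h; 0% = infected wells without compound and 100% = uninfected wells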
# RecA splice inh – blocks M. tuberculosis RecA intein splicing; P9WHJ3; cell-free RecA intein splicing, fluorescence; inhibition, %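 (about 9 µM by stock and volumes)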; hit rate 0.75% among 290,000; AID 2221; in the data active means inhibition above about 30%; inconclusive means no clear call, values can overlap the other calls;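 further: 0% = vehicle wells and 100% = reference inhibitor control wells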
# Target sequence (P9WHJ3 whole entry, looked up, canonical isoform): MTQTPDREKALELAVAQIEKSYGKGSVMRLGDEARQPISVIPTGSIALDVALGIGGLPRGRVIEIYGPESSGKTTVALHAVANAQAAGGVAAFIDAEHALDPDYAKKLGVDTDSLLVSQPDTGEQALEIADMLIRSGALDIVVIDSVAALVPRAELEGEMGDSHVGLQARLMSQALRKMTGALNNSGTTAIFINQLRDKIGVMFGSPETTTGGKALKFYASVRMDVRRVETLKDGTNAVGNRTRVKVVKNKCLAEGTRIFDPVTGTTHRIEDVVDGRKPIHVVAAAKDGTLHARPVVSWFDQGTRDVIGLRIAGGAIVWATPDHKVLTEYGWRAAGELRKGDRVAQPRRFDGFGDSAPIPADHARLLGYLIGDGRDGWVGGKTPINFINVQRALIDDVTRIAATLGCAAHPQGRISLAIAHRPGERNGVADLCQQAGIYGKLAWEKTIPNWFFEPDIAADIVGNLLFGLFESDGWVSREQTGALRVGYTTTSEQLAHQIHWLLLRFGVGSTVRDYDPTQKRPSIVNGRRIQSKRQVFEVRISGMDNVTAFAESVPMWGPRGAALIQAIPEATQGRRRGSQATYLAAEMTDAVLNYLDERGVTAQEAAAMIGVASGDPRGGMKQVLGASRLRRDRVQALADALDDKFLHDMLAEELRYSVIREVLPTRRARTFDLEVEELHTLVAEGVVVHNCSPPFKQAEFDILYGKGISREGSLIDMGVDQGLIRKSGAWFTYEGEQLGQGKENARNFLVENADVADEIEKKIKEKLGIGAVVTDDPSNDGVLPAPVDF
# Mtb bLac sens – beta-lactam sensitization of Mtb H37Rv; M. tuberculosis H37Rv growth with meropenem, percent inhibition; hits of this screen are not shown here; inhibition, % at 25 µM; hit rate 0.27% among 330,000;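 active means about 74% or more and at least 40 points above the plate without the antibiotic, then above 30% in a dose series; inconclusive means first-round hits that could not be retested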;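 further: growth measured after seven days incubation then overnight dye step; 0% = bacteria only wells and 100% = bacteria with antibiotic; twin plates without the antibiotic show which effects depend on it; some results filed as inactive read as strong as hits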
# YopH PTP inh – blocks Yersinia enterocolitica YopH tyrosine phosphatase | fluorescence Ex485/Em525 | inhibition, %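 (about 10 µM by stock and volumes)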 | hit rate 0.16% among 140,000 | AID 898;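 active means inhibition of 50% or more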;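 further: controls were vehicle for no effect and minimum signal wells for full effect; inactives centre near -20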
# Mtb growth – M. tuberculosis H37Rv growth inhibitors, H37Rv strain (AID 1626); M. tuberculosis H37Rv growth inhibition; higher % means a stronger effect; inhibition, % at 10 µM, or IC50 in µM where a hit was titrated; hit rate 0.95% among 220,000;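 active means confirmed in a dose series; inconclusive means inhibition above 80% but not taken into the dose series; inactive means below 80% or under 30% at every dose of the series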;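 further: bacteria incubated seven days before Alamar blue readout; 0% = bacteria only wells and 100% = bacteria with antibiotic wells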
# Arbovirus anti repeat – also measured in Arbovirus anti; calls as there; inhibition, %; measured here: 10K subset replicate screen; many hits read low in the repeat;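 first of two repeat runs on a subset; 0% = infected and 100% = uninfected wells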
# * marks the source's active call; other numbers are inactive results; ? = inconclusive; . = not tested or not shown. Not all compounds are listed (hit frequency here may not be typical).
SMILES,Arbovirus anti,RecA splice inh,Mtb bLac sens,YopH PTP inh,Mtb growth,others
Cc1cc(C)nc(NC(=O)c2c(C(=O)O)noc2C)n1,8,-1.5,-4,.,.,
Cn1c(N)c(C(=O)CSc2ncn[nH]2)c(=O)n(C)c1=O,.,-0.6,1,.,-13%,
CC(C)(C)NC(=O)NC(=O)COC(=O)CNC(=O)c1cccc(F)c1,10,-2.1,-2,-12,-3%,
Cc1cccc(N/C=C(\[N+](=O)[O-])S(=O)(=O)c2ccccc2)c1,-2,-2.6,-2,.,-5%,
CCCCOc1ccc(CN2CCN(CCO)CC2)cc1,-5,1.4,-11,-29,-6%,
Cc1ccc(C(=O)OCC(=O)NNC(=O)COc2ccc(Cl)cc2)c(O)c1,.,-2.6,-6,.,.,
CC(=O)c1cccc(NC(=O)CN(c2cccc(F)c2)S(C)(=O)=O)c1,2,8.7,-6,-8,-3%,
Cc1ccc(S(=O)(=O)Nc2cccc(C(=O)Nc3cc(C)ccn3)c2)cc1,0,.,.,9,8%,
COC(=O)c1cc(-c2cccc(OC)c2)on1,-2,-2.8,92,-45,.,
CN(C)c1oc(-c2ccccc2F)nc1C#N,-6,0.3,4,-28,4%,Arbovirus anti repeat=-2
CN(C)C(=S)Nc1cccc(F)c1,.,-6.3,-15,.,0%,
COc1ccccc1CC(=O)Nc1ncc(C)s1,.,1.5,1,.,.,
COCCn1c(C)cc(C(=O)COC(=O)c2ccc(Cl)c(S(N)(=O)=O)c2)c1C,.,0.5,5,.,.,
Cc1ccc(NC2=C([N+](=O)[O-])CS(=O)(=O)C2)cc1,14,-1.1,-9,-64,-13%,
N#Cc1cnn(CC2CCCCC2)c1N,3,0.4,-5,-7,-1%,Arbovirus anti repeat=-3
CCOc1ccc(NC(=O)CCC(=O)Oc2ccc(C)cc2)cc1,.,-2.1,-1,.,.,
Cc1cccc(N2CCN(CC(=O)Nc3ccc(-n4cnnn4)cc3)CC2)c1C,4,-1.8,-7,-12,2%,
Cc1nn(C(=O)c2ccccc2)c2c1C(=O)CC(C)(C)C2,16,6.6,-4,-5,2%,
CCC(C)[C@H](Nc1nc(-c2ccccc2)nc2c1oc1ccccc12)C(=O)O (stereo partly specified),15,3.8,-2,-10,10%,
CCC(c1nnc(SCC(=O)Nc2nnc(-c3ccccc3)o2)o1)N(C)C (stereo unspecified),3,-12,?,-17,-2%,
CC(C)c1ccc(NC(=O)CSc2n[nH]c(=O)n2-c2cccnc2)cc1,.,0.6,-4,.,.,
COc1ccccc1/C=N/Nc1nccnc1Cl,-3,0.6,2,-22,2%,
Cc1cccc(C)c1NC(=O)CN1C(=O)COc2ccccc21,.,3.8,3,.,.,
CC1CCc2sc(C(=O)Nc3ccc(N4CCOCC4)cc3)cc2C1 (stereo unspecified),-20,0.4,0,.,8%,
CCCOC(=O)N[C@@H]1C(=O)N2C(C(=O)OCCC)=C(C)CS[C@H]12,.,-0.5,50,.,.,
# (listing goes on)
SMILES,Arbovirus anti,RecA splice inh,Mtb bLac sens,YopH PTP inh,Mtb growth,others
CO/N=C/C(C(C)=O)C(=O)Nc1ccc(Cl)cc1Cl (stereo unspecified),-13,1.6,-1,.,-5%,
CN(c1ccc(C(=O)NCCCn2ccnc2)cc1)S(C)(=O)=O,.,-1.8,-1,.,.,
C/C(=N\O)c1cccc(Br)c1,.,-1.9,11,.,-2%,
CCc1cc2cccc(C)c2nc1SCC(=O)Nc1nonc1C,-6,2.0,15,.,2%,
COc1cccc(/C=N/NC(=O)c2ccc3nc[nH]c3c2)c1,.,-0.9,-10,.,-10%,
CCc1n[nH]c2c1/C(=N\O)CC(c1ccccc1)C2 (stereo unspecified),-6,4.6,-9,-33,2%,
O=[N+]([O-])c1cccc(NC(=S)N2CCc3ccccc32)c1,.,0.8,-2,.,.,
O=C(NC1CCCc2ccccc21)c1ccc(Cl)nc1 (stereo unspecified),-3,1.1,-4,-24,-5%,
CC1CC2(CC(C)(C(=O)CSc3nc4ccccc4s3)OC2=O)C(=O)O1 (stereo unspecified),-8,-1.3,-13,-12,-4%,
O=C(O)CCC(=O)NCC1OCCc2ccccc21 (stereo unspecified),3,0.6,2,-33,1%,
Oc1nc(-c2ccc(Br)cc2)n2ccncc12,2,-87,10,.,11%,
COc1ccc(N2CC(C(=O)N/N=C/c3c[nH]c4ccccc34)CC2=O)cc1 (stereo unspecified),-5,1.6,2,.,3%,
Cc1cc(NC(=O)CSc2nnnn2-c2ccc(C)c(Cl)c2)no1,.,-0.5,9,.,.,
Cc1cc(F)ccc1NC(=O)c1cccnc1,1,-1.8,1,.,-4%,
COc1ccc(NC(C)C(=O)N/N=C/c2ccc([N+](=O)[O-])s2)cc1 (stereo unspecified),-27,-3.4,.,.,?,
COc1ccccc1OCc1nc(-c2cccc([N+](=O)[O-])c2)no1,6,-0.1,5,.,4%,
O=C1C=C(c2ccccc2)C(=O)N1Nc1ccccc1,-6,-0.1,86,-23,2%,
O=C(Nc1ccccc1N1CCOCC1)C1Cc2ccccc2CN1C(=O)c1ccco1 (stereo unspecified),7,2.4,-5,-25,0%,
O=C(CCCN1C(=O)/C(=C/c2cccc(Br)c2)SC1=S)Nc1ccccn1,6,7.9,91,-53,60%,
CS(=O)(=O)c1ncc(CO)n1Cc1ccccc1,8,-5.0,3,.,-1%,
Cc1cc(C[n+]2ccsc2N)c2ncccc2c1,.,-13,2,.,-2%,
CCOC(=O)c1nnn(-c2nonc2-n2cccc2)c1-c1cccc([N+](=O)[O-])c1,3,-6.1,5,.,6%,
Cc1nc2cc([N+](=O)[O-])ccc2c(=O)n1-c1cccc(Br)c1,.,-4.5,-1,.,.,
CC(C)Cc1nc2oc3c(=O)[nH]cnc3c2c2c1CCC2,-5,2.0,4,-46,0%,
Cc1cccc(NC(=O)CN2C(=O)c3ccccc3S2(=O)=O)n1,.,-0.9,3,.,.,

# 5 structures already listed, sorted by number of heavy atoms, ascending:
SMILES,Arbovirus anti,RecA splice inh,Mtb bLac sens,YopH PTP inh,Mtb growth,others
Oc1nc(-c2ccc(Br)cc2)n2ccncc12,2,-87,10,.,11%,
CS(=O)(=O)c1ncc(CO)n1Cc1ccccc1,8,-5.0,3,.,-1%,
Cc1nc2cc([N+](=O)[O-])ccc2c(=O)n1-c1cccc(Br)c1,.,-4.5,-1,.,.,
Cc1cc(NC(=O)CSc2nnnn2-c2ccc(C)c(Cl)c2)no1,.,-0.5,9,.,.,
COc1ccc(N2CC(C(=O)N/N=C/c3c[nH]c4ccccc34)CC2=O)cc1 (stereo unspecified),-5,1.6,2,.,3%,

# The listing picks up with the 6 entries that preceded the break.
SMILES,Arbovirus anti,RecA splice inh,Mtb bLac sens,YopH PTP inh,Mtb growth,others
CS(=O)(=O)c1ncc(CO)n1Cc1ccccc1,8,-5.0,3,.,-1%,
Cc1cc(C[n+]2ccsc2N)c2ncccc2c1,.,-13,2,.,-2%,
CCOC(=O)c1nnn(-c2nonc2-n2cccc2)c1-c1cccc([N+](=O)[O-])c1,3,-6.1,5,.,6%,
Cc1nc2cc([N+](=O)[O-])ccc2c(=O)n1-c1cccc(Br)c1,.,-4.5,-1,.,.,
CC(C)Cc1nc2oc3c(=O)[nH]cnc3c2c2c1CCC2,-5,2.0,4,-46,0%,
Cc1cccc(NC(=O)CN2C(=O)c3ccccc3S2(=O)=O)n1,.,-0.9,3,.,.,
Oc1ccc(N=Nc2n[nH]c(-c3ccc(Br)cc3)n2)cc1,-27,2.9,15,-15,?,
COc1cc2c(cc1OC)C1=C(C#N)CCC(=NC(=O)c3ccco3)N1CC2,6,-4.7,-2,.,5%,
Nc1nc(NC2CCCCC2)nc(NCCO)c1[N+](=O)[O-],.,-0.1,-8,.,.,
CC(C)Cn1c(NCCN(C)C)nc2c1c(=O)[nH]c(=O)n2C,0,1.8,2,-6,4%,
CN1C(=O)[C@@H]2[C@@H]3C[C@@H]([C@H]4ON=C(c5ccc(Cl)cc5)[C@@H]34)[C@@H]2C1=O,-2,0.0,2,-16,-1%,
O=C(NCCCN1CCN(c2ccccc2F)CC1)C1CCN(S(=O)(=O)N2CCOCC2)CC1,7,-2.8,-11,9,-5%,
COc1ccccc1N1CCN(c2ccc3ccccc3n2)CC1,.,5.4,-1,.,.,
COc1ccc(CCNC(=O)C2CC(=O)N(C3CCCCC3)C2)cc1OC (stereo unspecified),.,2.1,-8,.,.,
COc1ccc(NC(=O)CC2C(=O)N(C)C(=S)N2CCc2ccccc2)cc1 (stereo unspecified),-15,3.8,3,-23,-2%,
Cc1cccc(C(=O)OCN2C(=O)c3ccccc3C2=O)c1[N+](=O)[O-],.,1.3,0,.,.,
Cc1ccc(NC(=O)C(OC(=O)c2ccc(NC(N)=O)cc2)c2ccccc2)cc1Cl (stereo unspecified),8,14,10,-13,7%,
CCOC(=O)c1c(OCC)[nH]c2ccc(O)cc12,3,-3.9,-6,14,-11%,
COCCN(Cc1cc2cc3c(cc2nc1Cl)OCO3)C(=O)Nc1ccc(F)cc1,10,2.5,0,-35,3%,
COc1ccc(OCC(=O)NNC(=O)c2ccccc2OCc2c(C)noc2C)cc1,.,-1.3,0,.,.,
Cc1cc(=O)[nH]c(SCC(=O)N2CCCc3ccccc32)n1,-2,0.8,15,-19,0%,
O=c1cc(-c2ccc([N+](=O)[O-])cc2)c2cc3c(cc2[nH]1)OCCO3,-3,1.4,4,.,-13%,
CCn1c(N)c(C(=O)Nc2ccccc2C(=O)OC)sc1=S,1,-4.2,-5,-30,1%,
CCOC(=O)Cc1csc(NC(=O)C(NC(=O)C2CCCCC2)C(C)C)n1 (stereo unspecified),3,-5.8,-1,.,20%,
CCc1nnc(NC(=O)CCC(=O)N2CCC(Cc3ccccc3)CC2)s1,.,0.5,4,.,.,
O=C(Cc1ccccc1[N+](=O)[O-])Nc1nccs1,.,3.2,-5,.,2%,
O=S(=O)(NCCn1cccc1)c1ccc2ccccc2c1,17,0.1,1,.,-3%,
CC12CCC(=O)C=C1CCC1C2C(=O)CC2(C)C1CCC2(O)C(=O)CO (stereo unspecified),.,-0.2,-1,.,.,
FC(F)(F)c1ccc(-c2nnc(-c3ccccn3)c(-c3ccccn3)n2)nc1,.,.,-6,.,-4%,
CSc1nc(C)c(CCOCc2ccccc2)c(=O)[nH]1,6,1.1,-1,-34,-7%,
NC(=O)N/N=C/c1ccc(N2CCOCC2)s1,-3,-7.5,-5,-15,-1%,
C=C1CC2C3CC[C@@]4(OCOC45COCO5)[C@@]3(C)C(O)CC2[C@@]2(C)CCC(=O)C=C12 (stereo partly specified),28,0.2,5,-12,1%,
CC(=O)N1CCN(S(=O)(=O)c2cccc(C(=O)Nc3ccc(C)cn3)c2)CC1,.,-0.3,?,.,.,
Cc1c(NS(=O)(=O)c2ccc3c(c2)Cc2ccccc2-3)c(=O)n(-c2ccccc2)n1C,-12,-0.2,3,.,-5%,
